# Screening data from PubChem BioAssay.
# CSC inhib: blocks cancer stem cells; cancer stem cell-like cells viability, luminescence; inhibition, % at 7.5 µM; 300,000 compounds, 1.1% hits; AID 2717;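 active = mean at 75% or more and at least half the replicates too; inconclusive = mean and replicates disagree; tested in HMLE shEcad cells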;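 note: 0% = median of negative and 100% = median of positive control wells; the first replicate is given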
# Rce1 inh: blocks yeast Ras-converting enzyme. Q03530. yeast membranes, quenched prenylated peptide cleavage fluorescence. AID 2563. calls only. 290,000 compounds, 0.27% hits;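 active = fall in fluorescence gain of 50% or more versus controls, with final raw signal at or below 3038400; inconclusive = same 50% fall but final raw signal above 3038400; inactive = fall in fluorescence gain under 50%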;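 note: plate controls were neutral control wells for no effect and wells lacking membranes for full effect; tested at 10 µM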
# MT1-MMP act inh: MT1-MMP (human) activation inhibition | HT1080 RFP-PRO-GFP cells, GFP/RFP ratio fluorescence, overnight; percent of plate control window, DMSO zero | GFP/RFP ratio change, % at 20 µM | 360,000 compounds, 0.061% hits;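 active = GFP/RFP ratio change of at least 30% with cell ATP level not reduced by more than half and red fluorescence within 50% of control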; note: strong numbers were not always called active
#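 Read-out: GFP/RFP fluorescence ratio; Test system: RFP-PRO-GFP reporter HT1080 cells; Compound dosing: single-point 20 µM compound, 1% DMSO; Times: overnight compound exposure at 37 °C.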
# HIV Env fusion: blocks HIV Env-driven cell-cell fusion. 360,000 compounds, 1.1% hits. HeLa-JRFL Env/CEM21 cell fusion, luciferase. inhibition, % at 12.3 µM. AID 651610;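 active = mean replicate inhibition score of at least 50 and every replicate individually at or above 50; inconclusive = only one of the two criteria met; inactive = mean below 50 and not all replicates reaching 50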;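 note: 0% = plate neutral controls and 100% = maraviroc near 300 nM; one replicate is shown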
# Yeast UUG start: yeast start codon fidelity modulation; S. cerevisiae UUG-firefly luciferase reporter, luminescence/redox ratio; activity score, % at 18.7 µM; 350,000 compounds, 0.13% hits; AID 602363;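 active = replicate mean at a twofold rise or more, about +100% in these data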;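 note: firefly luciferase made from a UUG start codon reports start codon fidelity; reporter light over untreated wells divided by growth signal over untreated wells; some hits fall short of that in this replicate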
# PABP FP inh: blocks human PABP binding to poly(A) RNA. P11940. fluorescence polarization. 290,000 compounds, 1% hits. inhibition, % at 35 µM. AID 2014;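 active = 50% or more with normal probe brightness, or confirmed in later tests; inconclusive = above 50% with abnormal brightness, or retests that disagree; inactive = below 50% or failed in later tests; about a fifth of its hits are not listed in these tables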;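 note: calls also rest on retests at 20 µM and on dose response follow-up; controls were probe without protein and protein plus probe with vehicle; some compounds called inactive have numbers as strong as hits; many hits fall short of the cut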
# Target sequence (P11940 whole entry, looked up): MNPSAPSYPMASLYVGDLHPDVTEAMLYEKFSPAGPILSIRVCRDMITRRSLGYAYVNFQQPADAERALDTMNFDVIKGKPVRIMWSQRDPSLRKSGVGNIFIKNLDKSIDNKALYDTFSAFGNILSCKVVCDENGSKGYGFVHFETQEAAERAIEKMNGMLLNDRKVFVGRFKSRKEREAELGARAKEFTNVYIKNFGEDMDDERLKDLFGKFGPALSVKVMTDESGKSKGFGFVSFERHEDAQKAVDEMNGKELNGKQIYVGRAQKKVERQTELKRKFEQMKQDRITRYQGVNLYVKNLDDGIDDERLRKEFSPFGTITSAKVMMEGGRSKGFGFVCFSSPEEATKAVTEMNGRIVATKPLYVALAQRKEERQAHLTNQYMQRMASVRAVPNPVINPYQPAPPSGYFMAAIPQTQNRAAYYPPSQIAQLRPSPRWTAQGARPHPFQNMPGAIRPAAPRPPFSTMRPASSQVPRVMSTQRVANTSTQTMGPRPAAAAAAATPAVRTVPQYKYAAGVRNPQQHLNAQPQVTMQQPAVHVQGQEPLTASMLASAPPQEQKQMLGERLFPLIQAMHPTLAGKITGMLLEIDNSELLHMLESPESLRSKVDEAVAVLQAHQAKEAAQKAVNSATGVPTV
# eIF4H FP inh: inhibitors of RNA binding by human eIF4H; eIF4H fluorescence polarization binding assay; Q15056; 290,000 compounds, 0.94% hits; AID 2012; inhibition, % at 35 µM;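 active = 50% or more with normal probe brightness, or confirmed in later tests; inconclusive = above 50% with abnormal brightness, or retests that disagree; inactive = below 50% or failed in later tests; about a fifth of its hits are not listed in these tables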;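 note: calls also rest on retests at 20 µM and on dose response follow-up; 0% = protein and probe with vehicle and 100% = probe without protein; strong numbers were not always called active; many hits fall short of the cut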
# MT1-MMP act inh RFP: second read-out of MT1-MMP act inh, no call of its own (marks repeat the call); RFP signal change, %; measured here: RFP expression control read;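 0 = vehicle wells; hits needed this value within 50% of zero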
# An asterisk follows results filed as active; i = inactive; ? = inconclusive; / = no result given; & = joins results of further samples.
entry	SMILES	CSC inhib	Rce1 inh	MT1-MMP act inh	MT1-MMP act inh RFP	HIV Env fusion	Yeast UUG start	PABP FP inh	eIF4H FP inh
1	COc1nc(-c2cccc([N+](=O)[O-])c2)nc2ccccc12	5	i	-3	-3	3	2	-1	-2
2	Cc1cccc(C(=O)NC2CCN(CC(=O)Nc3ccccc3Cl)CC2)c1	-22	i	3	0	4	2	-3	-10
3	Cc1ccc(C(=O)N2CCCC(CCC(=O)N3CCN(c4ccccn4)CC3)C2)cc1C (stereo unspecified)	26	i	-2	-16	4	5	12	-9
4	Cc1cc(C)cc(N2CC(C(=O)O)CC2=O)c1 (stereo unspecified)	-2	i	0	4	/	-12	9	-1
5	Cc1ccc(C)c(Cn2c(CO)nc3ccccc32)c1	-23	i	-6	-8	/	-20	8	-3
6	Cc1ncc(CO)c2cc(C(N)=O)c(=Nc3ccccc3)oc12	-1	i	4	3	-13	6	-5	-8
7	COCC1CCCCN1C(=O)c1ccc(OC2CCN(Cc3ccccn3)CC2)cc1 (stereo unspecified)	9	i	2	6	-1	-10	-5	10
8	O=C1CCCC(=O)N1c1ccc(O)cc1	-8	i	1	-2	-6	/	-1	-2
9	CCC(=O)N(C)C[C@H]1Oc2cc(-c3cccnc3)ccc2S(=O)(=O)N([C@H](C)CO)C[C@H]1C	/	/	-3	1	14	-17&-6	/	/
10	COC(=O)C(Cc1ccccc1)NC(=O)CSc1nc(N)cc(=O)[nH]1 (stereo unspecified)	-9	i	6	4	/	9	1	2
11	CC(=O)Oc1ccc(C(=O)Nc2cc(NC(=O)c3ccc(OC(C)=O)cc3)cc(C(=O)NC(C)(C)C)c2)cc1	9	i	2	-1	16	/	23	-8
12	N/C(=N\OC(=O)c1ccc(Br)o1)c1ccccn1	-5	i	7	-4	5	1	7	-6
13	Cc1ccc(-c2csc(NC(=O)N3CCOCC3)n2)cc1	-3	i	-1	-22	3	-14	1	-2
14	COc1ccc(-c2cc(-c3ccccc3)nc(SCC(=O)Nc3nccs3)c2C#N)cc1	-6	i	-6	-7	4	/	-6	19
15	Cn1nnnc1SCC(=O)Nc1ccccc1Cc1ccccc1	-3	i	8	5	-54	-23	-14	4
16	CCOC(=O)c1c(NC(=O)C2C3C=CC(C3)C2C(=O)O)sc2c1CC(C)CC2 (stereo unspecified)	/	i	4	4	-2	/	-5	5

# Exported with one line to a screen: entries from further up.
3: Cc1ccc(C(=O)N2CCCC(CCC(=O)N3CCN(c4ccccn4)CC3)C2)cc1C (stereo unspecified)
4: Cc1cc(C)cc(N2CC(C(=O)O)CC2=O)c1 (stereo unspecified)
5: Cc1ccc(C)c(Cn2c(CO)nc3ccccc32)c1
6: Cc1ncc(CO)c2cc(C(N)=O)c(=Nc3ccccc3)oc12
7: COCC1CCCCN1C(=O)c1ccc(OC2CCN(Cc3ccccn3)CC2)cc1 (stereo unspecified)
8: O=C1CCCC(=O)N1c1ccc(O)cc1
9: CCC(=O)N(C)C[C@H]1Oc2cc(-c3cccnc3)ccc2S(=O)(=O)N([C@H](C)CO)C[C@H]1C
10: COC(=O)C(Cc1ccccc1)NC(=O)CSc1nc(N)cc(=O)[nH]1 (stereo unspecified)
11: CC(=O)Oc1ccc(C(=O)Nc2cc(NC(=O)c3ccc(OC(C)=O)cc3)cc(C(=O)NC(C)(C)C)c2)cc1
12: N/C(=N\OC(=O)c1ccc(Br)o1)c1ccccn1

assay / compound | 3 | 4 | 5 | 6 | 7 | 8 | 9 | 10 | 11 | 12
CSC inhib | 26 | -2 | -23 | -1 | 9 | -8 | / | -9 | 9 | -5
Rce1 inh | i | i | i | i | i | i | / | i | i | i
MT1-MMP act inh | -2 | 0 | -6 | 4 | 2 | 1 | -3 | 6 | 2 | 7
MT1-MMP act inh RFP | -16 | 4 | -8 | 3 | 6 | -2 | 1 | 4 | -1 | -4
HIV Env fusion | 4 | / | / | -13 | -1 | -6 | 14 | / | 16 | 5
Yeast UUG start | 5 | -12 | -20 | 6 | -10 | / | -17&-6 | 9 | / | 1
PABP FP inh | 12 | 9 | 8 | -5 | -5 | -1 | / | 1 | 23 | 7
eIF4H FP inh | -9 | -1 | -3 | -8 | 10 | -2 | / | 2 | -8 | -6

13: Cc1ccc(-c2csc(NC(=O)N3CCOCC3)n2)cc1
14: COc1ccc(-c2cc(-c3ccccc3)nc(SCC(=O)Nc3nccs3)c2C#N)cc1
15: Cn1nnnc1SCC(=O)Nc1ccccc1Cc1ccccc1
16: CCOC(=O)c1c(NC(=O)C2C3C=CC(C3)C2C(=O)O)sc2c1CC(C)CC2 (stereo unspecified)

assay / compound | 13 | 14 | 15 | 16
CSC inhib | -3 | -6 | -3 | /
Rce1 inh | i | i | i | i
MT1-MMP act inh | -1 | -6 | 8 | 4
MT1-MMP act inh RFP | -22 | -7 | 5 | 4
HIV Env fusion | 3 | 4 | -54 | -2
Yeast UUG start | -14 | / | -23 | /
PABP FP inh | 1 | -6 | -14 | -5
eIF4H FP inh | -2 | 19 | 4 | 5

# (listing goes on)
entry	SMILES	CSC inhib	Rce1 inh	MT1-MMP act inh	MT1-MMP act inh RFP	HIV Env fusion	Yeast UUG start	PABP FP inh	eIF4H FP inh
17	CCc1nnc(NC(=O)Cc2ccc(OC)c(S(=O)(=O)N3CCOCC3)c2)s1	/	/	1	0	-7	-14	/	/
18	O=C1NC2=C(C(=O)CCC2)C(c2ccccc2Cl)N1 (stereo unspecified)	-15	i	2	5	-4	/	-6	-2
19	N#C/C(=C(/O)COC(=O)CCCNC(=O)c1ccc(Cl)cc1)c1nc2ccccc2[nH]1	-9	i	-8	5	-9	-14	44	43
20	COc1ccc(Cn2nnnc2CN2CCOCC2)cc1	-8	i	5	3	/	-20	3	-1
21	CCc1nnc(N/N=C/c2c(C)[nH]c3ccccc23)n1N	6	i	1	2	-3	/	-4	2
22	COc1cccc(NC(=O)C2C(c3ccccc3)C2(Cl)Cl)c1 (stereo unspecified)	-1	i	6	0	4	-5	10	9
23	CCCc1ccc(OCC(=O)Nc2cc(S(=O)(=O)CC)ccc2O)cc1	-6	i	10	-1	7	-13	-3	1
24	COc1ccc(CN(C)C(=O)CNC(=O)Cc2cccc3ccccc23)c(OC)c1OC	-6	i	-1	1	4	12	4	0
25	COc1ccc(CN(C)CCCn2cnc3c(OC)ncnc32)cc1OC	/	/	1	0	-6	-7	/	/
26	O=C(CNCC1CCCO1)Nc1ccccc1N1CCCCCC1 (stereo unspecified)	-1	i	-4	-2	-17	-2	-3	-2
27	Cc1ccc(-n2c(C)cc(C(=O)COC(=O)C3=NNC(=O)CC3)c2C)cc1	11	i	3	-2	/	-1	-5	-12
28	CSc1ccccc1OCc1cc(C(=O)NCCC2=CCCCC2)no1	2	i	2	1	4	-13	1	2
29	Cc1cccc(N2C(=O)c3cccc4cccc(c34)C2=O)c1	0	i	-8	-4	32	-5	-3	-5
30	Cc1ncc([N+](=O)[O-])n1CCOC(=O)Nc1ccc([N+](=O)[O-])cc1	-12	i	3	-1	4	/	10	-3
31	Cc1[nH]c2ccc(C(=O)N3CCN(c4ccccc4Cl)CC3)cc2c1C	51	i	1	3	2	14	-7	-2
32	C=C(C)C1CC=C(C)/C(=N/NC(=O)c2cccc([N+](=O)[O-])c2)C1 (stereo unspecified)	-22	i	5	3	-2	-21	11	2
33	c1ccc2c(NCC3CCCO3)nc(N3CCCCC3)nc2c1 (stereo unspecified)	-17	i	5	0	10	-10	3	-6
34	CCC1Oc2ccccc2N(CC(=O)NCCCN2CCCC2)C1=O (stereo unspecified)	2	i	-1	1	-19	1	-1	10
35	COc1ccc(N(C(=O)/C=C/c2ccc(OC)c(OC)c2)C2=CC3CCC(C2)N3C)cc1 (stereo unspecified)	-3	i	-13	-3	5	/	2	-19
36	Cn1cc(C=C2C(=O)OC3(CCCCC3)OC2=O)c2ccccc21	-3	i	12	0	10	-9	-9	14
37	CCN(CC)c1ccc(/C=N/OC(C)C(=O)Nc2ccc(C)cc2)cc1 (stereo unspecified)	-11	i	-1	1	-10	/	-4	-2
38	Cc1cc(C(=O)CSc2nnnn2-c2ccccc2)c(C)n1-c1ccc2c(c1)OCO2	53	i	-2	-21	38	/	0	?
39	CN1CCN(NC(=O)c2cccc(S(=O)(=O)N3CCCCCC3)c2)CC1	-3	i	4	3	-28	-19	-3	-4
40	CCOc1ccc(NC(=O)CSc2nnc(NC(=O)C3CC3)s2)cc1	-8	i	4	5	3	-15	-3	-3
41	Cc1c(NC(=O)Nc2cc(F)c(F)cc2Cl)c(=O)n(-c2ccccc2)n1C	-12	i	0	0	5	-16	/	/
42	Nc1nnc(SCc2cc3c(cc2Cl)OCO3)s1	-10	i	-4	0	-49	-11	0	8
43	CCC(C)(C)C1CCc2c(sc(NC(=O)c3ccccc3C(=O)O)c2C#N)C1 (stereo unspecified)	44	i	2	-2	12	/	7	9
44	CN(C)CCOC(=O)Cc1ccc(Cl)cc1	/	i	-3	7	-124	-15	-3	-10
45	O=C(NCc1ccccc1)c1ccc(-c2ccccc2C(F)(F)F)o1	7	i	-1	-2	-13	-9	0	-2
46	COc1ccc(C(=O)OCC(=O)NC(=O)NC2CCCC2)c(OC)c1	-8	i	7	5	-7	16	10	-1
47	Cc1cccc(N2C(N)=C(C#N)C(C#N)(C#N)C2c2ccccc2)c1 (stereo unspecified)	23	i	2	-3	/	-12	-2	3
48	CS(=O)(=O)N1CCn2c1nc1ccccc12	4	i	4	4	-14	-28	-3	-8

# Along the list, from the results shown:
# Yeast UUG start, entries 41–46: -16, -11, /, -15, -9, 16
# CSC inhib, entries 41–46: -12, -10, 44, /, 7, -8
# HIV Env fusion, entries 41–46: 5, -49, 12, -124, -13, -7

# Additional entries follow.
entry	SMILES	CSC inhib	Rce1 inh	MT1-MMP act inh	MT1-MMP act inh RFP	HIV Env fusion	Yeast UUG start	PABP FP inh	eIF4H FP inh
49	O=C(NCCCN1CCCC1=O)c1ccc2c(c1)ncn2C1CCCCC1	-6	i	1	5	5	-4	4	1
50	Cn1cnnc1SCC(=O)NC(=O)NC1CCCC1	2	i	2	0	-24	-23	9	-2
51	O=C(NNS(=O)(=O)c1ccc(F)c(Cl)c1)c1cccc(S(=O)(=O)N2CCOCC2)c1	/	i	0	2	-5	/	2	4
52	CC(NC(=O)c1ccc(NS(C)(=O)=O)cc1)c1ccccc1 (stereo unspecified)	-1	i	2	6	/	-13	-6	-11
53	COc1ccc(/C=N/NC(=O)c2ccc3c(c2)OCCO3)cc1[N+](=O)[O-]	-1	i	-1	2	/	/	-5	-2
54	Cc1ccc(C(C(=O)NCc2ccco2)N(C(=O)CNC(=O)c2cccs2)c2c(C)cc(C)cc2C)cc1 (stereo unspecified)	32	i	3	-3	/	-23	-8	-3
55	COc1ccc(Nc2nc(N3CCN(S(C)(=O)=O)CC3)nc3ccccc23)c(OC)c1	-11	/	6	-1	4	-6	-3	-6
56	Cc1ccc(C(=O)Nc2ncc3c(Cl)cccc3n2)cc1	30	i	4	4	/	-39	-2	-4
57	O=C(NCc1ccccn1)c1cnc2sccn2c1=O	-3	/	2	-3	34	-11	-9	-6
58	COc1ccc(OC)c(NC(=O)CN2C(=O)C(C)N(c3ccc(C)cc3)C2=O)c1 (stereo unspecified)	0	/	-5	1	-2	-3	/	/
59	Cc1oc(CC(C)C)cc1C(=O)NCCCC(=O)O	-3	i	3	1	-1	/	-8	-2
60	O=C(CSc1nnc(NC(=O)C2CCC2)s1)Nc1ccc(N2CCOCC2)cc1	-5	i	1	9	-39	-2	0	4
61	O=C(CNC(=O)C1CCCCC1)Nc1cc(Cl)cc(Cl)c1	-12	i	-3	-5	-23	-3	3	-2
62	Nc1c([N+](=O)[O-])cnnc1-c1ccccc1	-5	i	0	3	12	-18	18	6
63	Cc1ccc(-c2ccc(SCC(=O)NCC3CCCO3)nn2)cc1 (stereo unspecified)	-19	i	-1	-3	-3	-35	2	-2
